Mtb MbtI inh: blocks the Mycobacterium tuberculosis siderophore enzyme MbtI; actives 0.89% (n = 100,000); purified MbtI enzyme, fluorescence intensity read-out; inhibition, %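 (about 17 µg/mL by stock and volumes)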; AID 493033;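 active means above 50% in both replicates, above 80% if mildly self-fluorescent; inactive means the rest, strongly fluorescent compounds included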;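 further: 0% = mean of negative and 100% = mean of positive controls; one replicate is shown; some compounds called inactive have numbers as strong as hits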
MenB inh: inhibitors of Mycobacterium tuberculosis MenB enzyme; P9WNP5; MenB enzyme assay, absorbance read-out; some hits fall short of the stated cut; inhibition, %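 (about 12 µg/mL by stock and volumes)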; actives 0.43% (n = 100,000);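 active means mean of two replicates above 30%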;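 further: 0% = no compound and 100% = wells with inactive enzyme; the first replicate is given; strong numbers were not always called active; inactives centre near -10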
Target sequence (P9WNP5 whole entry, looked up): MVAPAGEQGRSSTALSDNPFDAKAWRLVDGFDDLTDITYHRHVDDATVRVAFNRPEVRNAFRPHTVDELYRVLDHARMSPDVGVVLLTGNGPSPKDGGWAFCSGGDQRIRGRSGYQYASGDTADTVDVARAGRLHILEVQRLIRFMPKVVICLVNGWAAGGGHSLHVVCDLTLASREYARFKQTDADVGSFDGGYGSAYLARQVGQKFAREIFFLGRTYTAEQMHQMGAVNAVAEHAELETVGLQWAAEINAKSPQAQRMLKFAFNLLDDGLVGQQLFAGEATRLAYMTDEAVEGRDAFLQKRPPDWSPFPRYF
Polio RdRp inh: inhibitors of poliovirus RNA polymerase binding and polymerization; actives 0.66% (n = 150,000); poliovirus polymerase elongation, fluorescence polarization; hits give low values; % elongation, % (compound at 16.7 µg/mL); AID 588519; P03300; in the data active means % elongation below about 90%; further: some results filed as inactive read as strong as hits
Target sequence (P03300 1749-2209 limits assumed): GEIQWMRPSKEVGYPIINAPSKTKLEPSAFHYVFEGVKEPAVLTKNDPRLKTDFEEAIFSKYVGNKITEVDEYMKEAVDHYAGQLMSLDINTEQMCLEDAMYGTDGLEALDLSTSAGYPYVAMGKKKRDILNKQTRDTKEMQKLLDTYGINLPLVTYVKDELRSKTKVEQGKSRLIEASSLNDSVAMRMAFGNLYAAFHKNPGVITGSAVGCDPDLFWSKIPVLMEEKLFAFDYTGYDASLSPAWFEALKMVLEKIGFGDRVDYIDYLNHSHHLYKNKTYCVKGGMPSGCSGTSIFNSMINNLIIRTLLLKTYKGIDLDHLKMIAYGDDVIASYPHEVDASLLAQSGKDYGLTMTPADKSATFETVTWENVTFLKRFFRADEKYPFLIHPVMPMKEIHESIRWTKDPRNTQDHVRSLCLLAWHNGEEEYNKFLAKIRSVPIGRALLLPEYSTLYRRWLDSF
Polio RdRp inh intensity: second read-out of Polio RdRp inh, no call of its own (marks repeat the call); % elongation; measured here: total intensity read-out; formula for this scale not given here;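 total fluorescence in place of polarization; lower means less elongation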
Active calls of the source: *; i = inactive; x = not tested or not shown.

Compound	Mtb MbtI inh	MenB inh	Polio RdRp inh	Polio RdRp inh intensity
CN(C)c1ccc(C2NN(Cc3ccccc3)C3C(=O)N(C4CCCCC4)C(=O)C23)cc1 (stereo not given)	-101	-2	101	106
CCCN1C(=O)/C(=C/C=C2/Sc3ccccc3N2CCO)SC1=S	x	-7	166	197
CCOC(=O)c1sc(N)c(C#N)c1COC(=O)c1ccc(S(=O)(=O)NCc2ccco2)cc1	-6	-22	149	193
C/S(=N/C(=O)Nc1ccc(Cl)cc1)c1ccc(OC(=O)c2ccc(Cl)cc2)cc1 (stereo not given)	-9	-24	104	100
O=C1CC(N(O)c2ccccc2)C(=O)N1c1ccc(N2CCOCC2)cc1 (stereo not given)	10	0	103	99
O=C(c1cc(-c2ccccc2)c(N2CCOCC2)s1)N1CCC2(CC1)OCCO2	16	-2	98	100
Cc1ccc(NC(=O)CN(C)C(=O)c2ccccn2)cc1	0	-6	111	111
CN(C)C(=O)CNC(=O)c1ccc(S(=O)(=O)N(C)C)cc1	-6	4	x	x
Nc1c2c(nn1-c1ccccc1)Oc1ccc(Cl)cc1C2	16	-22	101	102
C/C(=N\N1CCN(C)CC1)c1ccc(OC(F)F)cc1	6	9	100	104
COc1ccc(/C=C2\C(=O)N(c3ccccc3)N=C2C)cc1	7	-9	104	102
Clc1ccccc1Cn1c(C2CCCO2)nc2ccccc21 (stereo not given)	-5	1	101	104
Cc1cn2c(=O)c(C(=O)N3CCC(CCCC4CCN(C(=O)c5cnc6sc(C)cn6c5=O)CC4)CC3)cnc2s1	11	-28	106	96
CC(NCc1cccs1)c1ccccc1 (stereo not given)	-5	-41	104	103
O=C(O)COc1ccc2occ(C(=O)c3ccccc3)c2c1	18	-5	103	105
CCCCC(=O)Nc1ccc(C(=O)Nc2cccnc2)cc1	4	-2	100	103
CN=C(Nc1ccccc1OC)c1ccccc1	5	-16	101	98
CCn1c(SCCOc2ccccc2)nnc1-c1ccco1	8	-29	100	97
Cc1ncsc1C(=O)OC(C#N)c1cccc(Oc2ccccc2)c1 (stereo not given)	x	-8	103	113
S=c1[nH]nc(-c2cccs2)n1C1CCc2ccccc21 (stereo not given)	89	-52	103	103
O=C1Nc2ccccc2S/C1=C\C(=O)N1CCC2(CC1)OCCO2	9	3	99	94
O=C(Nc1cc2ccccc2s1)NC1CCN(Cc2ccccc2)CC1	1	-21	102	95
O=C1Cc2cc(NS(=O)(=O)c3ccccc3)cc3c2N1CCC3	-3	-11	105	105
CC(C)CC(=O)N1c2ccccc2NC2=C(C(=O)CC(C)(C)C2)C1c1cccnc1 (stereo not given)	x	-13	106	110
CC1CN(c2ccc(N)cc2)CC(C)O1 (stereo not given)	15	-1	99	103
CC1=CCC2C(=O)N(c3ccc(S(N)(=O)=O)cc3)C(=O)C2C1 (stereo not given)	-4	-12	101	104
O=C1/C(=C/c2ccccc2)Sc2ccccc21	-5	-11	105	104
CC(C)c1nn2c(=O)cc(COC(=O)c3ccccc3NC(=O)c3ccco3)nc2s1	-20	-16	101	101
CC1C(=O)NN=C1C(=O)N/N=C\c1ccc(O)cc1O (stereo not given)	18	-81	107	102
COc1ccc(CCCc2nnc(SC(C)C(=O)Nc3nccs3)n2C)cc1 (stereo not given)	-2	-24	103	102
CN(c1cccc(NC(=O)CN(c2ccccc2)S(C)(=O)=O)c1)S(C)(=O)=O	-4	-2	109	107
Cc1ccc(-c2nc(C#N)c(NCCCN(C)C)o2)cc1	i	-1	102	106
C/C(=N\NC(=O)c1cc(Br)ccc1O)c1ccccn1	40	-24	102	105
CCc1noc(C)c1C(=O)OCC(=O)Nc1sc(C)c(C)c1C(=O)OC	6	-6	108	107
COc1ccc(C2=C(N)C(=O)NC2=O)cc1OC	x	-105	105	99
COCCn1c(C)cc(C(=O)CSc2nnc3ccccn23)c1C	18	-14	102	105
COc1cc2[nH]c(=S)n(N(C(C)=O)C(C)=O)c(=O)c2cc1OC	34	-3	103	103
Cc1nc2ccccc2c(=O)n1/N=C/c1ccc(Cl)c(Cl)c1	-14	7	103	100
COc1ccc(CN(Cc2cccs2)C(=O)Cc2cccs2)cc1OC	0	-12	107	104
N#Cc1ccccc1CSc1nnc(-c2cccs2)n1Cc1ccccc1	-4	-3	104	104
Cc1ccc(N2C(=O)CC(N3CCc4ccccc43)C2=O)cc1Cl (stereo not given)	-3	20	101	102
NC(=O)Cn1nnnc1-c1ccccc1N	20	-24	103	101
O=C(Nc1ccccc1)c1ccccc1OCc1nnc(-c2cccs2)o1	39	10	103	108
O=C(NC(c1ccccc1)c1ccccc1)c1cccnc1	x	-30	104	91
Cc1nc2[nH]c(=O)[nH]c(=O)c2s1	9	-26	104	101
O=C(Nc1ccc(N2CCCCC2)cc1)C1CCCCC1	-7	x	102	98
Cc1cc(C(=O)CSc2nnc(-c3sc4ccccc4c3Cl)o2)c(C)n1C1CC1	29	3	97	98
CSc1nc2nc(N)nc(N)c2s1	x	-14	103	108
NC(=O)c1oc2ccccc2c1NC(=O)CS(=O)(=O)c1ccccc1	-20	-7	104	104
CCN(C(=O)c1cccc2c1SCCC2=O)c1cc(Cl)ccc1OC	11	-10	98	102

New compounds follow:
Compound	Mtb MbtI inh	MenB inh	Polio RdRp inh	Polio RdRp inh intensity
CC(=O)Nc1ccc(NC(=O)Cc2ccccc2)cc1	-3	-3	104	105
COc1cccc(C(=O)CN2C3=NCCN3c3ccccc32)c1	1	7	98	101
Cc1ccc(NC(=O)C(c2ccccc2)N(C)C)cc1Cl (stereo not given)	-4	-25	100	93
O=C(Nc1ccc(F)cc1F)c1cnccn1	-5	-20	104	108
CCC(C(=O)Nc1ccccc1OC)n1c(C(=O)OC)cc2occc21 (stereo not given)	-6	-5	103	106
COc1cccc(-c2nnc(SCC(=O)N3CC(C)OC(C)C3)n2C)c1 (stereo not given)	-14	-20	107	112
Cc1cccc2c(=O)n(CCNCc3ccccc3)c(C)nc12	-17	-8	111	113
CC1=C(C#N)c2nc(N)c(C#N)c(C)c2/C1=C\C=C\c1ccccc1	-1	17	103	104
CCC(C(=O)OC)n1cnc2c(nnn2-c2cccc(Cl)c2)c1=O (stereo not given)	8	4	103	105
COc1ccc(CCNc2nc(Cl)nc(N3CC4CC(C3)c3cccc(=O)n3C4)n2)cc1OC (stereo not given)	x	-11	104	108
O=C(CNc1ccc(F)cc1F)NC(=O)NCc1ccco1	-4	-15	108	108
O=C(COc1ncnc2ccccc12)N1CCc2ccccc21	-6	x	101	105
O=C(OCC(=O)C12CC3CC(CC(C3)C1)C2)c1ccc(Br)o1	-4	-1	94	95
CCc1cccc(NC(=S)N2CCC(c3ccccc3)C2)c1 (stereo not given)	-2	-31	104	101
O=C(CCc1nc2ccccc2s1)N1CCN(c2ccccn2)CC1	-41	-19	107	104
CC1=C(C(=O)Nc2ccccc2C)C(c2ccccc2O)NC(=S)N1 (stereo not given)	13	-51	103	101
COc1ccc(S(=O)(=O)N(C)CC(=O)O)cc1	2	-14	99	100
Nc1ccc2c(c1)CCC2=O	74	-17	103	105
COc1ccc(CCNS(=O)(=O)c2cc(C(=O)O)ccc2Cl)cc1OC	-1	4	100	105
C[N+]1(C2CCCCC2)Cc2ccccc2C1	2	6	97	102
CN(C)C(=O)Cn1c2[n+](c3ccccc31)CC(O)CS2 (stereo not given)	-5	4	101	102
Cc1cc(C(=O)OCC(=O)N2CCCC2)c2ccccc2n1	7	x	99	102
O=C(Cc1csc(N2CCOCC2)n1)N/N=C/c1ccccc1C(=O)O	5	5	98	106
CN(Cc1ccccc1)S(=O)(=O)C1CCS(=O)(=O)C1 (stereo not given)	7	-29	102	97
NC(=O)c1ccccc1NC(=O)Nc1ccccc1	-323	-68	103	100

The last 4 records of the part before open the next one.
Compound	Mtb MbtI inh	MenB inh	Polio RdRp inh	Polio RdRp inh intensity
Cc1cc(C(=O)OCC(=O)N2CCCC2)c2ccccc2n1	7	x	99	102
O=C(Cc1csc(N2CCOCC2)n1)N/N=C/c1ccccc1C(=O)O	5	5	98	106
CN(Cc1ccccc1)S(=O)(=O)C1CCS(=O)(=O)C1 (stereo not given)	7	-29	102	97
NC(=O)c1ccccc1NC(=O)Nc1ccccc1	-323	-68	103	100
CC(=O)Nc1ccc(NC(=O)c2ccc(-c3cccc(C(F)(F)F)c3)o2)cc1	-7	0	100	101
Cc1cc(C)nc(Nc2n[nH]c(C)n2)n1	-17	-20	99	99
COCCn1cc(C(=O)NCCCN2CCC(C)CC2)c2c3ccccc3n(C)c2c1=O	118	3	102	105
Cc1c(C(=O)O)oc2ccc(S(=O)(=O)NC3CCCCC3C)cc12 (stereo not given)	-9	-13	103	106
O=C(Cc1ccccc1)OCC1CCCN2CCCCC12 (stereo not given)	x	-21	102	97
COc1ccc(CN2CNc3c(c(C)nn3-c3ccccc3)C2)cc1	-5	8	x	x
CC(=O)N=C1SC2CS(=O)(=O)CC2N1Cc1ccccc1Cl (stereo not given)	-16	-5	103	101
Cc1cc2cc3c(cc2nc1SCC(=O)N1CCCC1)OCCO3	-7	13	99	104
NC(=O)c1ccc2[nH]c3c(c2c1)CCCC3	x	-7	103	105
O=C(c1cc2ccccc2o1)N(c1ccccn1)c1ccccn1	8	x	105	103
N#CC1(Nc2ccccc2Cl)C(=O)Nc2ccccc21 (stereo not given)	-9	-35	102	103
N#CCCN(Cc1ccccc1)C(=S)Nc1ccccc1	-3	-23	100	101
O=C(Cn1c2ccccc2c2cn[nH]c(=O)c21)N1CCC2(CC1)OCCO2	37	-18	105	100
O=C(NCCc1ccccc1)c1ccc2c(c1)N(Cc1ccccc1)CCS2	106	-28	100	100
CC1=C(C(=O)OC(C)C)C(c2ccccc2)NC(=O)N1C (stereo not given)	x	0	100	99
COc1ccc(N2CCN(/C(=N/S(=O)(=O)c3ccccc3)Nc3nc(C)cc(C)n3)CC2)cc1	-4	-8	98	104
COc1ccc(-c2csc(-c3c(C)noc3N(C(C)=O)C(C)=O)n2)cc1	13	6	100	108
O=C(O)C1C2CC3CC(C2)CC1C3 (stereo not given)	-10	-7	102	102
O=C(NC1CCN(C(=O)c2c(Cl)cccc2Cl)CC1)C1CCCCC1	-8	-36	106	105
CCCCS(=O)(=O)N(O)c1ccc(Cl)cc1	85*	x	98	99
COc1cc(/C=N/NS(=O)(=O)c2cc(C)ccc2C)cc(OC)c1O	7	-21	x	x
CC(=O)Nc1cccc(/C(C)=N/NC(=S)NCC2CCCO2)c1 (stereo not given)	28	1	102	97
c1cc(CNc2ccc3c(c2)CCC3)ccn1	-10	-26	100	102
Cc1cc(C)cc(OCc2nc3cc(S(=O)(=O)N4CCOCC4)ccc3n2CC2CCCO2)c1 (stereo not given)	13	-15	109	108
COc1cc(NC(=O)CN2CCN(C3c4ccccc4-c4ccccc43)CC2)cc(OC)c1	0	3	100	103
CCCn1c(SCC(=O)N2c3ccccc3Sc3ccccc32)nc2ccccc21	-2	-11	104	102
CCCn1cnc2c1c(=O)n(C)c(=O)n2C	-5	12	101	102
CC(=O)OC[C@H]1O[C@@H](n2ccc(=O)[nH]c2=S)C(OC(C)=O)C1OC(C)=O (stereo not given in full)	-11	-28	101	100
CS(=O)(=O)N(CC(=O)NC12CC3CC(CC(C3)C1)C2)c1ccc2c(c1)OCO2	-2	2	x	x
C=CCN(CC=C)C(=O)CSc1nc(-c2ccccc2)cn1N	24	-20	101	96
N#CCCn1c(=O)[nH]c(=O)n(CCC#N)c1=O	-4	-16	102	102
COC(=O)CCc1ccc(/C=C/C(=O)O)o1	22	3	100	99
CN(C(=O)c1ccc2c(c1)C(=O)N(CCC1=CCCCC1)C2=O)C1CCCCC1	4	-104	100	97
COc1ccc(-c2nonc2NC(=O)C(C)C)cc1	-1	13	102	102
COc1ccc2c(c1)CC/C(=C\c1cccn1C)C2=O	17	-83	99	101
C[n+]1c(COc2ccccc2O)sc2ccccc21	x	-33	103	104
CC1=NN(c2ccccc2)C(=O)/C1=C\c1ccc(N(C)C)cc1	-1	-9	105	99
O=C1NC(=O)N(c2ccccc2F)C(=O)/C1=C/c1cn(CC(=O)N2CCCC2)c2ccccc12	44	-147	104	107
CC(N=C1NS(=O)(=O)c2ccccc21)C(=O)O (stereo not given)	194	4	102	104
O=C(Nc1ccccn1)C1c2ccccc2Oc2ccccc21	-5	-23	99	99
CC1(C)CC(=O)C(C(=O)/C=C/c2ccco2)C(=O)C1	-8	-21	104	106

Structural class: the entries above containing bromine.
Compound	Mtb MbtI inh	MenB inh	Polio RdRp inh	Polio RdRp inh intensity
C/C(=N\NC(=O)c1cc(Br)ccc1O)c1ccccn1	40	-24	102	105
O=C(OCC(=O)C12CC3CC(CC(C3)C1)C2)c1ccc(Br)o1	-4	-1	94	95

Random draw from the library, and some 1.9% of all compounds hit somewhere here.
